MbtI inh = blocks the Mycobacterium tuberculosis siderophore enzyme MbtI; P9WFX0; purified MbtI enzyme, fluorescence intensity read-out; inhibition, %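 (about 17 µg/mL by stock and volumes)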; actives 0.89% (n = 100,000);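 active = above 50% in both replicates, above 80% if mildly self-fluorescent; inactive = the rest, strongly fluorescent compounds included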;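 also: 0% = mean of negative and 100% = mean of positive controls; one replicate is shown; some compounds called inactive have numbers as strong as hits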
Polio RdRp inh = inhibitors of poliovirus RNA polymerase binding and polymerization | poliovirus polymerase elongation, fluorescence polarization; stronger effect = lower value | % elongation, % (compound at 16.7 µg/mL) | actives 0.66% (n = 150,000) | AID 588519; in the data active = % elongation below about 90%; also: some results filed as inactive read as strong as hits
Target sequence (P03300 1749-2209 limits assumed): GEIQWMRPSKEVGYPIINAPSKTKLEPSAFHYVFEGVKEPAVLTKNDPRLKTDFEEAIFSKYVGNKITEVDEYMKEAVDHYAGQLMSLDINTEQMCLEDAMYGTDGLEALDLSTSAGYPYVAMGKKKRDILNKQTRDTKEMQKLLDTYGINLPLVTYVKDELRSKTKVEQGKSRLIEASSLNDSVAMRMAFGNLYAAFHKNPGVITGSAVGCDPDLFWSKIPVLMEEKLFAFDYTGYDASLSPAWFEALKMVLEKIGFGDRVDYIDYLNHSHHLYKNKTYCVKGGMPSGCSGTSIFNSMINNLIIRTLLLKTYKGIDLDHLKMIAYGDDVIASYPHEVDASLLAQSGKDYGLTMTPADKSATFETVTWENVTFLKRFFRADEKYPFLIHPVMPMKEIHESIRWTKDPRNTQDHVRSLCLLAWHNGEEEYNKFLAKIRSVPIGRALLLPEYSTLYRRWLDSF
Mtb MenB inh = Mtb MenB enzyme inhibition; P9WNP5; MenB enzyme assay, absorbance read-out; some hits fall short of the stated cut; inhibition, %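 (about 12 µg/mL by stock and volumes)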; actives 0.43% (n = 100,000);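 active = mean of two replicates above 30%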;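 also: 0% = no compound and 100% = wells with inactive enzyme; the first replicate is given; strong numbers were not always called active; inactives centre near -10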
Target sequence (P9WNP5 whole entry, looked up): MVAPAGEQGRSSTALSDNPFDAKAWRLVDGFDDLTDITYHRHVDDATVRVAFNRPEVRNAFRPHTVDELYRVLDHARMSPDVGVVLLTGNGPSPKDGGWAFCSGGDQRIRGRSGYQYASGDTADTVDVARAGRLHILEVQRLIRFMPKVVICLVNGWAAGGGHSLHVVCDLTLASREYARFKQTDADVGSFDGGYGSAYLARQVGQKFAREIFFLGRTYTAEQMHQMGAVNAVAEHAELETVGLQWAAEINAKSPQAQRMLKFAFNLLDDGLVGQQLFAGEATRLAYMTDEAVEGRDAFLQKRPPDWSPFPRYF
Polio RdRp inh intensity = recorded beside Polio RdRp inh, whose call it bears; % elongation; measured here: total intensity read-out; formula for this scale not given here;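 total fluorescence in place of polarization; lower means less elongation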
* marks the source's active call; other numbers are inactive results; i = inactive; . = not tested or not shown.

nr	smiles	MbtI inh	Polio RdRp inh	Polio RdRp inh intensity	Mtb MenB inh
1	N#CCC(=O)Nc1ccc2c(c1)OCCO2	-4	102	97	.
2	Cc1cc(S(=O)(=O)N2CCCC2)ccc1-n1cnnn1	0	99	100	25
3	CCOc1ccccc1CCC(=O)O	-8	101	101	2
4	CCc1ccc(Nc2nnc(SCC(=O)NC(=O)CN3CCCC3=O)s2)cc1	8	101	106	4
5	O=C(Nc1ccccc1C1CC1)c1cccs1	7	103	105	-9
6	CC(=O)Nc1cccc(O)c1	-10	100	99	-65
7	Nc1nc(N2CCOCC2)ncc1S(=O)(=O)c1ccc(Cl)cc1	-133	102	99	8
8	CNc1nc2c(c(=O)[nH]c(=O)n2C)n1Cc1cccc2ccccc12	-1	101	104	24
9	Cc1cc2c(cc1S(=O)(=O)CCC(=O)NCc1ccco1)OCC(=O)N2	1	103	98	2
10	CN(C(=O)c1cc(=O)c2ccccc2o1)C1(c2ccccc2Cl)CCCCC1=O (configuration not stated)	-9	102	109	.
11	CO/N=C(/C(=O)N[C@@H]1C(=O)N2C(C(=O)O)=C(COC(C)=O)CS[C@H]12)c1csc(N)n1	-15	100	101	4
12	O=C(Nc1ccc(-c2nc3ccccc3s2)cc1)Nc1cc(F)cc2c1OCOC2	i	109	117	-2
13	CC(C)(CNCC(O)c1ccccc1)N1CCOCC1 (configuration not stated)	-9	98	97	1
14	Cc1nn(C(=O)c2ccc(C(C)(C)C)cc2)c(N)c1-c1ccccc1	.	110	114	-28
15	O=C1Nc2ccccc2/C1=C/c1cccc(Cl)c1	0	100	100	.
16	COc1ccc(OCCOc2ccc(C)cc2OC)cc1	-21	99	102	-16
17	CC(=NCC(c1ccco1)N1CCCCC1)C1=C(O)CC2(CCCCC2)CC1=O (configuration not stated)	-1	104	102	-14
18	O=C(CSc1ncccc1C(=O)Nc1ccc2c(c1)OCCO2)Nc1ccc2c(c1)OCO2	-5	99	101	-19
19	CCOC(=O)/C(=C\c1ccc(OCC(=O)O)cc1)C1=Nn2c(nnc2C2CCCCC2)SC1	10	105	97	-7
20	COc1cccc(C2CC(c3cccs3)=NN2C(=O)CSC2CCCCC2)c1OC (configuration not stated)	i	100	107	-18
21	O=C(COc1ccc(-c2ccccc2)cc1)Nc1ncccn1	-14	106	107	.
22	CCc1nc(C)cn1S(=O)(=O)c1cc(Br)c(C)cc1OC	0	100	100	-3
23	CC(=O)Nc1ccc(S(=O)(=O)NNc2ncnc3sccc23)cc1	17	100	103	-6
24	O=c1c(Cl)c(N2CCCC2c2ccc3c(c2)OCCO3)cnn1-c1nc2ccccc2[nH]1 (configuration not stated)	51	93	65	-14
25	CC(=O)Nc1ccccc1OCC(=O)N(C)Cc1ccco1	-8	103	104	-27
26	O=C(OCC(=O)N1CCCCC1)c1ccc(OC(F)(F)F)cc1	-10	99	98	.
27	O=C(Nc1cc(Cl)cc(Cl)c1)C(Sc1cccc[n+]1[O-])c1ccccc1 (configuration not stated)	1	100	104	.
28	COc1c(C)cc(S(=O)(=O)N2CCN(c3ccc(F)cc3)CC2)c(C)c1C	-18	99	98	-15
29	CCOC(=O)c1nnn2c1nc(Sc1nc3ccccc3[nH]1)c1ccccc12	-2	102	99	9
30	Cc1cc(NS(=O)(=O)c2ccc(NC(=O)c3ccncc3)cc2)nc(C)n1	6	103	105	-9
31	O=C(COc1ccccc1)OCC(=O)c1cccc(C(F)(F)F)c1	1	100	104	.
32	Cc1ccc(-n2nc(C)c3cc(C#N)c4nc5ccccc5n4c32)cc1	4	.	.	-31
33	CC(C)(C)c1ccc(C(=O)N(Cc2ccco2)C2CCS(=O)(=O)C2)cc1 (configuration not stated)	-1	102	100	-20
34	O=C(N/N=C/c1ccccn1)c1ccccc1NS(=O)(=O)c1cccs1	37	148	159	-7
35	Cc1cc(C=C2C(=O)CCCC2=O)c(C)n1-c1ccccc1	-7	102	107	.
36	O=c1c(O)c(-c2ccccc2O)[nH]c2ccccc12	95	110	118	-62
37	Cc1ccc(C(=O)CSCC(=O)Nc2ccccc2)s1	.	110	106	1
38	O=C(Nc1ccc(N2CCOCC2)cc1)c1cnc2ccccc2n1	-6	99	118	9
39	O=C(NCc1ccc2c(c1)OCO2)c1cc2ccccc2s1	-10	106	107	-16
40	Cc1ccc(NC(=O)Nc2cc3c(cc2N2CCCC2)n(C)c(=O)n3C)cc1C	1	100	100	-24
41	Cc1ccc(S(=O)(=O)NC(=O)NC(C)(C)C)cc1	-22	100	99	1
42	OC(CN1CCCCC1)CN1CCCCC1	-6	103	105	-32
43	Cc1ccc(NCc2nnc(SCc3nc4ccccc4c(=O)[nH]3)n2Cc2ccco2)c(C)c1	-3	102	103	-5
44	COc1ccc2ccccc2c1C(O)c1cccs1 (configuration not stated)	.	107	112	2
45	CCN1CCCC1CNC(=O)c1noc2c1COc1ccc(C)cc1-2 (configuration not stated)	-8	104	108	-30
46	CCOC(=O)Cn1c(=NC(=O)C2COc3ccccc3O2)sc2cc(NC(C)=O)ccc21 (configuration not stated)	2	100	101	1
47	CC(C)Cn1c(O)c(N=NC(=S)NC(C)C)c2ccccc21	-71	97	98	-112
48	COC(=O)c1cc(CSc2nnc(-c3ccccc3)c(-c3ccccc3)n2)oc1C	-7	101	108	-31
49	CC(C)(C)c1csc(-c2ccc(-c3cccs3)s2)n1	-21	107	106	-26
50	CC(c1ccccc1)C(CC(=O)Nc1nccs1)C(=O)Nc1nccs1 (configuration not stated)	-11	99	101	-1
51	Clc1ncnc2c1[nH]c1ccccc12	114	103	103	-5
52	CC(=O)Nc1ccc(NC(=O)CCC(=O)c2ccccc2)cc1	4	99	95	-18
53	O=C(C1CCCCC1)N1CCC(n2nnc3ccccc32)CC1	3	101	100	15
54	CSc1ccc(Cn2cccc2C2=NC(C(C)C)CO2)cc1 (configuration not stated)	-1	101	97	-32
55	CCn1c(O)c(N=NC(C)=O)c2ccccc21	-6	99	94	-14
56	Cc1ccc(C(=O)CSc2ncn(-c3ccccc3)n2)cc1	-18	103	102	-40
57	CC(NCC1CCCO1)C(=O)N(C(C)C)C(C)C (configuration not stated)	-9	101	104	1
58	c1ccc2sc(SCc3cn4cccnc4n3)nc2c1	29	103	108	-19
59	Cc1ccc(NCC(O)Cn2c3ccccc3c3ccccc32)cc1 (configuration not stated)	-3	102	106	-23
60	Nc1ccccc1C(=O)OC1CSC1	-369	98	101	7

Two entries from above, with two lines to a compound.
Value order: MbtI inh	Polio RdRp inh	Polio RdRp inh intensity	Mtb MenB inh
59) Cc1ccc(NCC(O)Cn2c3ccccc3c3ccccc32)cc1 (configuration not stated)
  -3	102	106	-23
60) Nc1ccccc1C(=O)OC1CSC1
  -369	98	101	7

Reformatted in transposed form: 5 of the compounds above.
36. O=c1c(O)c(-c2ccccc2O)[nH]c2ccccc12
39. O=C(NCc1ccc2c(c1)OCO2)c1cc2ccccc2s1
60. Nc1ccccc1C(=O)OC1CSC1
4. CCc1ccc(Nc2nnc(SCC(=O)NC(=O)CN3CCCC3=O)s2)cc1
5. O=C(Nc1ccccc1C1CC1)c1cccs1

compound no.	36	39	60	4	5
MbtI inh	95	-10	-369	8	7
Polio RdRp inh	110	106	98	101	103
Polio RdRp inh intensity	118	107	101	106	105
Mtb MenB inh	-62	-16	7	4	-9

Following part:
nr	smiles	MbtI inh	Polio RdRp inh	Polio RdRp inh intensity	Mtb MenB inh
61	Nc1c(C(=O)Nc2ccccc2)sc2sc(C(=O)Nc3ccccc3)c(N)c12	.	106	107	-45
62	COC(=O)c1ccc(COC(=O)c2csc3c2CCCC3)o1	-2	103	107	-14
63	COC(=O)c1c(-c2ccccc2)csc1N	59*	94	90	-19
64	CCOC(=O)OC(C)OC(=O)[C@@H]1N2C(=O)[C@@H](NC(=O)[C@H](N)c3ccccc3)[C@H]2SC1(C)C (some centres not stated)	-3	99	103	6
65	COc1ccc2cc3cc(C(=O)NCc4cc(Br)ccc4OC)oc3nc2c1	4	103	102	-28
66	O=C(NCc1ccco1)C1CC1(c1ccccc1)c1ccccc1 (configuration not stated)	-10	99	99	-21
67	CC1CCc2c(sc3c2C2=NS(=O)(=O)CCN2C=N3)C1 (configuration not stated)	125	103	108	3
68	COC1CC2C(=O)OC(C(=O)O)C2C(OC)C1OC (configuration not stated)	.	102	105	-22
69	Cc1ccnc(SCC(=O)Nc2ccccc2)n1	-2	103	102	-6
70	S=c1nccc(-c2cc(-c3ccccc3)no2)[nH]1	12	108	110	-62
71	CC(C)COC(=O)N1CCCC1C(=O)O (configuration not stated)	3	102	102	-10
72	COc1ccccc1C(=O)Nc1cccc(-c2csc(-c3ccccc3)n2)c1	4	102	107	-32
73	COc1ccc(C2CC(=O)NC(NC(=S)NC(C)C)=N2)cc1 (configuration not stated)	5	102	102	-11
74	CCOC(=O)c1oc2ccccc2c1CN1CCN(C(=O)c2ccccc2)CC1	-7	104	107	4
75	C=C(C)CNC(=S)Nc1cc(Cl)ccc1Sc1nncn1C	79*	91	91	-15
76	O=C(Cn1ccn(-c2ccccc2)c(=O)c1=O)Nc1ccccc1	32	104	108	-32
77	CCCCC(CC)CNc1ncnc2c1oc1ccccc12 (configuration not stated)	-26	99	103	-29
78	CCNC(=O)c1cc2sccc2n1Cc1ccccc1	-5	100	101	-21
79	CN(C)S(=O)(=O)c1ccc(SCC(=O)N2CC(=O)Nc3ccccc32)nc1	21	99	107	-11
80	COCc1cc(=O)[nH]c(/N=C(\N)Nc2ccccc2)n1	-7	104	109	-12
81	CC1CC(CC(C)C(=O)NC(=S)Nc2ccc(S(N)(=O)=O)cc2)C(=O)O1 (configuration not stated)	3	101	102	-5
82	COc1ccc2ncc(S(=O)(=O)c3ccccc3)c(N3CCC4(CC3)OCCO4)c2c1	-6	106	109	-28
83	CC1CCCC(NC(=O)CNC(=S)N(Cc2ccc(F)cc2)C2CCCCC2)C1C (configuration not stated)	-7	101	109	-36
84	CCN1C(=O)c2ccccc2Sc2ccc(NC(=O)NCc3ccccc3)cc21	-3	104	103	-25
85	O=C1C=CC(=NSc2ccccc2)C=C1	23	103	102	-21
86	CCCc1nc2nc(C)c(NS(=O)(=O)Cc3ccccc3)c(=O)n2[nH]1	-13	99	103	0
87	CCC1CCCCN1C(=O)COC(=O)/C=C/c1cc(OC)c(OC)c(OC)c1 (configuration not stated)	-5	100	94	-30
88	CCC(=O)N(C(=O)CC)c1cc2oc3ccccc3c2cc1OC	.	99	101	-7
89	Cc1cc(C(=O)OCc2cc(=O)oc3cc4c(cc23)CCC4)c(C)o1	-2	104	105	-26
90	CCOC(=O)N1CCC(NC(=O)c2nccnc2C(=O)Nc2ccc(C)cc2)CC1	10	101	100	0
91	CC(=O)Nc1ccc2oc(-c3ccccc3)nc2c1	-437	100	98	2
92	CCn1c(SCC(=O)N=Nc2c(O)[nH]c3c(C)cc(C)cc23)nnc1-c1ccc(C)cc1	-10	100	102	-30
93	Nc1ccc2c(c1)C(=O)N(CCCCN1C(=O)c3ccc(N)cc3C1=O)C2=O	-26	102	105	-16
94	CC(C)CCN1COc2ccc3c4c(oc3c2C1)C(=O)c1ccccc1C4=O	3	92	95	-1
95	CCCc1ccc(S(=O)(=O)NCC2CCCN2CC)cc1 (configuration not stated)	-5	106	100	-40
96	CCn1ncc(C2=NOC(C(=O)O)C2)c1C (configuration not stated)	6	99	102	6
97	c1ccc(-n2c3c(c4ccccc42)CCCC3)cc1	.	110	112	-1
98	CCc1cc2c(=O)c(-c3nc(C)cs3)c(N)oc2c(CN2CCCCC2)c1O	-27	105	101	-22
99	CCCN(CC(=O)Nc1cc(C)on1)CC(=O)Nc1ccccc1C	-4	103	109	8
100	Cc1cc2c([nH]c3ccccc32)c(C)n1	.	99	102	-29
101	O=C(O)CNC(=O)CCN1C(=O)c2ccccc2C1=O	-1	102	103	20
102	N=c1n(CCN2CCCCC2)c2ccccc2n1CC(O)c1ccc2c(c1)OCO2 (configuration not stated)	-2	101	101	7
103	CCCCN(C)c1nc2ccccc2c(=O)n1-c1ccc(Cl)cc1	18	101	102	-28
104	Cc1nc(N(C)C2CCCCC2)c2nnn(Cc3ccc(F)cc3)c2n1	-6	100	103	22
105	COc1cccc(C(=O)Nc2c(C)n[nH]c2C)c1	-20	100	102	-20
106	COc1ccccc1OCCn1cc(/C=C2\Cc3ccccc3C2=O)c2ccccc21	7	106	104	-4
107	O=C(COc1ccc(C2=Nc3ccccc3NC(c3ccccc3)C2)cc1)Nc1ccccc1 (configuration not stated)	-10	112	108	-32
108	CCOc1ccc(CCl)cc1OCC	-7	103	100	.
109	N#CC1=C(N)C(C#N)(C#N)C(c2cccs2)C2CN(C(=O)OCc3ccccc3)CC=C12 (configuration not stated)	1	101	103	-4
110	O=C(Nc1cccnc1)c1cnn(-c2ccccc2)c1-n1cccc1	-2	100	107	-13
111	CCOc1ccc(S(=O)(=O)N2CCc3ccccc3C2CC(=O)Nc2nnc(C)s2)cc1 (configuration not stated)	-8	101	107	-10
112	CC1(C)CC(=O)C2=C(C1)Nc1ccccc1N(C(=S)Nc1ccccc1)C2c1ccco1 (configuration not stated)	4	96	104	-2

Only MbtI inh and Polio RdRp inh intensity, for 2 of the compounds above:
item | canonical_smiles | MbtI inh | Polio RdRp inh intensity
107 | O=C(COc1ccc(C2=Nc3ccccc3NC(c3ccccc3)C2)cc1)Nc1ccccc1 (configuration not stated) | -10 | 108
111 | CCOc1ccc(S(=O)(=O)N2CCc3ccccc3C2CC(=O)Nc2nnc(C)s2)cc1 (configuration not stated) | -8 | 107
